UCH37 inh: human UCH37 deubiquitinating enzyme inhibition; AID 588478; 330,000 tested, 0.33% active; Q9Y5K5; inhibition, % (no concentration beside the values); purified proteasome/UCH37, Ub-AMC cleavage fluorescence;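 active = mean of two replicates above 20%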;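 note: 0% = compound-free wells with enzyme and 100% = wells lacking proteasome; stock transfer was 100 nL into about 20 µL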
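system = Proteasome-associated human UCH37 deubiquitinase | amount = 0.15 nM proteasome as dispensed | medium = pH 7.4 Tris-HCl (50 mM) with ovalbumin, ATP-MgCl2, DTT | incubation = 30 min preincubation with enzyme, 25 min cleavage at room temperature | detection = AMC fluorescence 355/460 nm | read-out basis = percent inhibition | controls = no-proteasome and no-compound wells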
LANA-H2A inh: blocks KSHV LANA binding to histone H2A/H2B | Q9QR71 | cell-free LANA-H2A/H2B peptide, fluorescence polarization | inhibition, % (test concentration not listed) | 320,000 tested, 0.6% active | AID 2629; in the data active = inhibition mostly above about 10%, no sharp cut-off; inactive = mostly below about 6.7%;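 note: stock transfer was 7.5 nL into about 10 µL; 0% = median of vehicle wells and 100% = median of positive control wells; one replicate is shown; the record names a cut of 25% in any replicate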
Target sequence (Q9QR71 whole entry, looked up): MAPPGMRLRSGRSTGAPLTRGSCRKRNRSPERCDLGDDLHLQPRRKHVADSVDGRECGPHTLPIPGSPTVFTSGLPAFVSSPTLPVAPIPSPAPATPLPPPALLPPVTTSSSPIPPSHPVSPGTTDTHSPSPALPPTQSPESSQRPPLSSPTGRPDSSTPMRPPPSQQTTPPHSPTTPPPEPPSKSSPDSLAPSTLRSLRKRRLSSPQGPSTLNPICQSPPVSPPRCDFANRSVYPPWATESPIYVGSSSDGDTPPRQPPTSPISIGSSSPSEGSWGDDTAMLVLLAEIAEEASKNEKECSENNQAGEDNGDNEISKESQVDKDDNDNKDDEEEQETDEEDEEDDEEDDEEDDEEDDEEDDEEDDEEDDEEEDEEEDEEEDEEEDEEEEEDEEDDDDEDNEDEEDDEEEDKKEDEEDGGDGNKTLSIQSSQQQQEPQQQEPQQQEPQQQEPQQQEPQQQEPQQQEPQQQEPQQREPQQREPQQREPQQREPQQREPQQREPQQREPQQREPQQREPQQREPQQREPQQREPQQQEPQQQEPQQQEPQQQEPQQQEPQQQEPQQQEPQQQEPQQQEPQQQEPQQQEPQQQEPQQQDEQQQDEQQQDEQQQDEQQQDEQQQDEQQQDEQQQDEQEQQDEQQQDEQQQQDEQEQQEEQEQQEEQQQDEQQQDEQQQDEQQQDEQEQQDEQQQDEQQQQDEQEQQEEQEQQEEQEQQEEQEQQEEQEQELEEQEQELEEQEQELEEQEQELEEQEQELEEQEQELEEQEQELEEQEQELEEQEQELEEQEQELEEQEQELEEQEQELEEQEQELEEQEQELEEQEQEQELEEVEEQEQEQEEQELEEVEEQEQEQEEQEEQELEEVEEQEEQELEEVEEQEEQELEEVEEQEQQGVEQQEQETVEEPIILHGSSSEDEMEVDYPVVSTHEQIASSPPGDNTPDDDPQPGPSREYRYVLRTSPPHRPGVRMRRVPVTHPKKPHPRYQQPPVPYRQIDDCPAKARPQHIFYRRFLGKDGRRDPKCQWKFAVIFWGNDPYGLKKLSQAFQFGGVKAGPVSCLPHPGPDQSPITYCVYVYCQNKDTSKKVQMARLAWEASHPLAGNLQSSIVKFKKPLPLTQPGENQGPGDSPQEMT
FGF22 binding: shifts melting point of recombinant human FGF22 | Q9HCT0 | recombinant FGF22 thermal shift, SYPRO orange fluorescence; percent of sucrose octasulfate shift, DMSO zero | calls only at 9.99 µM | 340,000 tested, 1.5% active;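 active = melting point raised past a set limit in the mean and every replicate; three in four hits are not shown here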
ALR inh: inhibitors of human sulfhydryl oxidase ALR. P55789. purified ALR, DTT oxidation, H2O2 HRP-luminol luminescence. inhibition, % (no concentration beside the values). 290,000 tested, 3.8% active. AID 485317;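 active = mean and each replicate at 75% or more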;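 note: stock transfer was 7.5 nL into about 7.5 µL; 0% = neutral wells and 100% = wells with inactivated enzyme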
B2AR ag: agonists of human beta-2 adrenergic receptor inducing internalization. AID 504454. Am2.2-beta2AR cells, FAP receptor internalization, flow cytometry; reference of the scale not given here. response, % (test concentration not listed). 340,000 tested, 0.43% active;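 active = response above a set limit, near 3 SD of response in nonfluorescent compounds, cut at about 42% in these data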;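 note: stock transfer was 100 nL into about 11 µL; a reference agonist was the positive control; negative values mostly stem from fluorescent compounds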
An asterisk follows results filed as active. Only part of the results is shown (hit frequency here may not be typical).

For COc1ccc(OC)c(NC(=O)C2C3CCC(O3)C2C(=O)O)c1 (stereo not drawn) the results were LANA-H2A inh -3.2 and ALR inh -34.
For CC(C)(C)C#CC(CCc1ccccc1)OS(N)(=O)=O (stereo not drawn) the results were LANA-H2A inh -1.9 and ALR inh 3.
CC(C)N1CC=C2C(C#N)=C(N)C(C#N)(C#N)[C@H](c3ccoc3)[C@H]2C1 was read as LANA-H2A inh 19 and ALR inh -24.
For CC1=C(/C=C/C(C)=C/C=C/C(C)=C/C=C/C=C(C)/C=C/C=C(C)/C=C/C2=C(C)CCCC2(C)C)C(C)(C)CCC1 the results were LANA-H2A inh 3.3 and ALR inh -3.
COc1ccccc1/C=N/NC(=O)c1ccc(NC(=O)c2cccc([N+](=O)[O-])c2)cc1 was read as LANA-H2A inh 1.9 and ALR inh -5.
Screening Cc1ccc(C(=O)n2nnc3ccccc32)cc1 returned LANA-H2A inh 1.1 and ALR inh 15.
Screening Cc1cccc(N2CSC3=C(C#N)C(c4ccc(C)o4)CC(=O)N3C2)c1 (stereo not drawn) returned LANA-H2A inh 3.4 and ALR inh 99*.
Cc1ccccc1Nc1nnc(SCC(=O)NC(=O)Nc2ccc3c(c2)OCCO3)s1 was read as LANA-H2A inh 3.5 and ALR inh -22.
`CC(=O)OC[C@H]1O[C@@H](O/N=C(\C)CCN2CCCCc3nc(C)c(C)cc32)[C@H](OC(C)=O)[C@@H](OC(C)=O)[C@@H]1OC(C)=O` gave LANA-H2A inh 1.6 and ALR inh -6.
O=C(CSc1nnc(NC(=O)c2ccccc2Cl)s1)Nc1ccc2c(c1)oc1ccccc12 was read as LANA-H2A inh 6.4 and ALR inh -3.
For COc1cccc(C2=CC(c3ccc(N(C)C)cc3)n3ncnc3N2)c1 (stereo not drawn) the results were LANA-H2A inh -4.2 and ALR inh 36.
For C/C(=N\Nc1ccc([N+](=O)[O-])cc1[N+](=O)[O-])c1cc2c(ccc3ccccc32)oc1=O the results were LANA-H2A inh 5.7 and ALR inh -7.
Cc1ccc2nc3nc(NCC4CCCO4)c(C(=O)NC4CCCCC4)cc3c(=O)n2c1 (stereo not drawn) was read as LANA-H2A inh -3.7 and ALR inh -2.
For COc1cc(/C=C2/C(=O)N(c3ccccc3)N=C2C)ccc1OS(=O)(=O)c1ccccc1 the results were LANA-H2A inh -0.6 and ALR inh -10.
Nc1nc2n(n1)C1(CCCCC1)C1=C(CCCC1)N2 was read as LANA-H2A inh 0.6 and ALR inh 2.
COC(=O)/C=C1/S/C(=N/N=C/c2ccc(N(C)C)cc2)NC1=O was read as LANA-H2A inh 3.4 and ALR inh 16.
Screening O=C(NCc1cc(C(F)(F)F)ccc1Cl)c1cccc2c1C(=O)c1ccc(-c3ccc(OC(F)(F)F)cc3)cc1S2(=O)=O returned LANA-H2A inh -1.0 and ALR inh -2.
`O=C(Nc1ccc(Cl)c(Cl)c1)Nc1cc(C(=O)NC2CC2)ccc1Cl` gave LANA-H2A inh 17* and ALR inh -10.
Screening O=C1Nc2ccccc2S/C1=C\C(=O)N1CCCC1 returned LANA-H2A inh -11 and ALR inh 6.
Screening CC(=O)[C@H]1[C@H](c2cccc(Cl)c2)C(C#N)(C#N)[C@@H]2c3ccccc3C=CN21 returned LANA-H2A inh -5.5 and ALR inh -18.
`CNC(C)C#Cc1ccc2c(=O)c3c(OC)cccc3oc2c1` (stereo not drawn) gave LANA-H2A inh -1.6 and ALR inh 2.
Screening COc1ccc(C2C=C(c3ccc(Br)s3)Nc3ncnn32)cc1OC (stereo not drawn) returned LANA-H2A inh 2.3 and ALR inh 6.
`CC(/C=C1\SC(=S)N(CCCC(=O)Nc2ccc(C(=O)O)c(O)c2)C1=O)=C\c1ccccc1` gave LANA-H2A inh inactive and ALR inh 97*.
`Cc1cc(C2=CC(C)(c3cc(C)oc3C)Nc3nc(C(F)(F)F)nn32)c(C)o1` (stereo not drawn) gave LANA-H2A inh 0.5 and ALR inh 14.
For O=C(c1cccnc1)N1CCN(c2ccccc2Cl)CC1 the results were LANA-H2A inh -1.1 and ALR inh -3.
`Cc1ccc(C(=O)c2ccc(C(F)(F)F)cc2)cc1` gave LANA-H2A inh -5.9 and ALR inh -14.
Screening Cc1cccc2cc(/C=N/NC(=O)CN3CCCCC3)c(Cl)nc12 returned LANA-H2A inh 5.4 and ALR inh -1.
Screening C=CCC(Nc1ccccc1)c1ccc(OC)c(OC)c1 (stereo not drawn) returned LANA-H2A inh -3.0 and ALR inh 96*.
Screening COc1ccccc1/C=N/NC(=Nc1ccc(C)cc1)c1nc2ccccc2s1 returned LANA-H2A inh 1.7 and ALR inh -2.
For CC(=O)c1ccc(-c2csc(N3CCC(C(N)=O)CC3)n2)cc1 the results were LANA-H2A inh -0.9 and ALR inh 17.
CC1=NN(c2ccccc2)C(=O)/C1=C/c1cc2cc(C)ccc2nc1N1CCCCC1 was read as LANA-H2A inh -6.0 and ALR inh 10.
Screening Cc1cc(C)nc(S/C=C/C(=O)c2ccc(F)cc2)n1 returned LANA-H2A inh -1.6 and ALR inh 1.
Screening CCOC(=O)C1=NN(C(=O)c2cccc(Br)c2)C(O)(C(C)(C)C)C1 (stereo not drawn) returned LANA-H2A inh -2.5 and ALR inh 8.
For COc1ccc2nc(/C=N/NC(=O)[C@H](C)NC(=O)OC(C)(C)C)ccc2c1 the results were LANA-H2A inh -2.2 and ALR inh -6.
`CC(C)=CCC/C(C)=C/CC(C)(C)CNCCN1CCNCC1` gave LANA-H2A inh 0.9 and ALR inh -14.
`O=C(O)c1cc(C(=O)O)cc(-c2ccc(/C=c3/sc4nc5ccccc5n4c3=O)o2)c1` gave B2AR ag 2.
Screening COC(=O)C/C=C/[C@@H](C)[C@@H](C=NO[C@@H](C)c1cn([C@H](CO)Cc2ccccc2)nn1)NS(=O)(=O)c1ccc(C)cc1 returned UCH37 inh 2.9.
Cc1ccc(C=NNC(=O)c2cccs2)cc1[N+](=O)[O-] was read as UCH37 inh 1.7.
For CC(=NO)C(=O)NCCN(C)C the results were UCH37 inh 4.0.
`CC(CCN1CCc2nc(-c3ccccc3)c(-c3ccccc3)cc2C1)=NO[C@@H](C)c1cn([C@H](CO)Cc2ccccc2)nn1` gave UCH37 inh 0.7.
For C/C=C/C=NNc1nc(C)cc(=O)[nH]1 the results were UCH37 inh 1.1.
For CCNC(=O)CC1S/C(=N/N=C(C)c2ccccc2)NC1=O (stereo not drawn) the results were UCH37 inh 5.1.
Screening C/C(C=NNC(=O)c1ccncc1)=C/c1ccc(C(C)C)cc1 returned UCH37 inh 3.1.
For C#CCOCCOCCOCCNc1nc(N2CCN(C(=O)[C@H](CCC(=O)O)n3cc(C(N)CO)nn3)CC2)nc(N2CCN(C(=O)[C@H](CCC(=O)O)n3cc(C(N)CC(C)C)nn3)CC2)n1 (stereo partly drawn) the results were UCH37 inh 1.0.
Screening COc1ccc(O[C@H]2C=C[C@@H](c3ccccc3)O[C@@H]2COC(=O)CCC(C)=NO[C@@H](C)c2cc(-c3c(C)cc(C)cc3C)no2)cc1 returned UCH37 inh 1.3.

Continued; the last 2 above are carried over.
For C#CCOCCOCCOCCNc1nc(N2CCN(C(=O)[C@H](CCC(=O)O)n3cc(C(N)CO)nn3)CC2)nc(N2CCN(C(=O)[C@H](CCC(=O)O)n3cc(C(N)CC(C)C)nn3)CC2)n1 (stereo partly drawn) the results were UCH37 inh 1.0.
Screening COc1ccc(O[C@H]2C=C[C@@H](c3ccccc3)O[C@@H]2COC(=O)CCC(C)=NO[C@@H](C)c2cc(-c3c(C)cc(C)cc3C)no2)cc1 returned UCH37 inh 1.3.
`C#CCOCCOCCOCCNc1nc(N2CCN(C(=O)[C@H](CCC(=O)O)n3cc(C(N)Cc4ccc(O)cc4)nn3)CC2)nc(N2CCN(C(=O)[C@H](CCCCN)n3cc(C(N)[C@H](C)CC)nn3)CC2)n1` (stereo partly drawn) gave UCH37 inh 1.6.
`COc1ccc(OCC(=O)NN=C2CCCc3ccccc32)cc1` gave UCH37 inh 0.7.
`COc1cccc(C(=O)NCC(=O)NN=C(C)/C=C/c2ccccc2)c1` gave UCH37 inh 4.9.
For CCCCCCCCCCCCCCCC(=O)OC[C@H](COP(=O)([O-])OCC[N+](C)(C)C)OC(=O)CCCCCCCCCCCCCCC the results were UCH37 inh 1.0.
`Br/C(C=NNc1nc(N2CCOCC2)nc(N2CCOCC2)n1)=C/c1ccccc1` gave UCH37 inh 7.4.
N/C(=N\N=Cc1ccnc2ccccc12)SC1CC(=O)N(c2ccc(Br)cc2)C1=O (stereo not drawn) was read as UCH37 inh 0.1.
Screening CCN1C(=O)[C@H]2[C@H]3[C@H](O)[C@H](O)CC(=NO[C@H](C)c4cn([C@H](CO)Cc5ccccc5)nn4)[C@@H]3CC[C@H]2C1=O returned UCH37 inh 0.8.
`C=C1C(=O)O[C@@H]2[C@H]3O[C@]3(C)CCC=C(C)CC[C@@H]12` gave UCH37 inh 0.4.
`O=C(CC1S/C(=N/N=Cc2cccs2)NC1=O)Nc1ccc(Cl)c(Cl)c1` (stereo not drawn) gave UCH37 inh 1.8.
`COc1ccc(C=NNC(=O)c2c(C)n(C)c3ccc(OC)cc23)c(OC)c1` gave UCH37 inh 7.4.
For Cc1cccc(C=Nn2c(-c3ccccn3)n[nH]c2=S)c1 the results were UCH37 inh -0.7.
For C/C(C=NNC(=O)c1c(Br)cnn1C)=C\c1ccccc1 the results were UCH37 inh 5.6.
For CCOc1ccc(CCN2C(=O)C(=O)N([C@H](CCCN(C)Cc3ccccc3)CNCc3ccccc3)C[C@@H]2C(C)C)cc1 the results were UCH37 inh 5.9.
Screening CC(CCN1CCc2nc(-c3ccccc3)c(-c3ccccc3)cc2C1)=NO[C@H](C)c1cn([C@H](CO)Cc2ccccc2)nn1 returned UCH37 inh -0.4.
`C#CCOCCOCCOCCNc1nc(N2CCN(C(=O)[C@H](CCCCN)n3cc(C(N)CO)nn3)CC2)nc(N2CCN(C(=O)[C@H](CCC(=O)O)n3cc(C(N)CC(C)C)nn3)CC2)n1` (stereo partly drawn) gave UCH37 inh 1.9.
Screening COC(=O)C/C=C/[C@@H](C)[C@@H](C=NO[C@H](C)c1cn([C@@H]2COC[C@H]2O)nn1)NS(=O)(=O)c1ccc(C)cc1 returned UCH37 inh -2.4.
COC(=O)C/C=C/[C@@H](C)[C@@H](C=NOC[C@H]1O[C@H](c2ccccc2)C=C[C@@H]1Oc1ccc(OC)cc1)NS(=O)(=O)c1ccc(C)cc1 was read as UCH37 inh 1.7.
For COc1ccc(C=NNC(=O)/C(=C\Nc2nccc(C)n2)NC(=O)c2ccccc2)cc1 the results were UCH37 inh 2.8.
`CC1(C)Cc2ccccc2C(C(=NNc2cccc(Cl)c2)C(N)=O)=N1` gave UCH37 inh 0.8.
COC(=O)[C@@]1(Cc2ccc(OC)cc2)[C@H]2c3cc(C(=O)N4CCCC4)n(CCSCCO)c3C[C@H]2CN1C(=O)c1ccccc1 was read as UCH37 inh 2.6 and LANA-H2A inh 2.6.
For Cn1cnc(S(=O)(=O)N2CCCCN3[C@H](C2)[C@H](c2ccc(-c4cccc(F)c4)cc2)[C@@H]3CO)c1 the results were FGF22 binding inactive.
`COc1ccc(CN(C)C[C@@H]2Oc3ccc(NS(=O)(=O)c4cn(C)cn4)cc3CC(=O)N([C@@H](C)CO)C[C@@H]2C)cc1` gave FGF22 binding inactive.
`COc1ccc(S(=O)(=O)Nc2ccc3c(c2)C(=O)N([C@H](C)CO)C[C@@H](C)[C@H](CN(C)Cc2ccc(Oc4ccccc4)cc2)O3)cc1` gave FGF22 binding inactive.
Screening O=C(C1=C[C@H](c2ccc3c(c2)Cc2ccccc2-3)C[C@H](OCCCCO)O1)N1CCCCC1 returned FGF22 binding inactive.
For COCCNC(=O)C[C@@H]1CC[C@H]2[C@@H](COc3ccc(NC(=O)c4cnccn4)cc3C(=O)N2C)O1 the results were FGF22 binding inactive.
Screening COC(=O)C[C@H]1CC[C@H]2[C@@H](COC[C@H](O)CN2S(=O)(=O)c2ccccc2OC)O1 returned FGF22 binding inactive.

Fetched one by one from above, four records:
Screening COC(=O)C[C@H]1CC[C@H]2[C@@H](COC[C@H](O)CN2S(=O)(=O)c2ccccc2OC)O1 returned FGF22 binding inactive.
COC(=O)[C@@]1(Cc2ccc(OC)cc2)[C@H]2c3cc(C(=O)N4CCCC4)n(CCSCCO)c3C[C@H]2CN1C(=O)c1ccccc1 was read as UCH37 inh 2.6 and LANA-H2A inh 2.6.
`COc1ccc(S(=O)(=O)Nc2ccc3c(c2)C(=O)N([C@H](C)CO)C[C@@H](C)[C@H](CN(C)Cc2ccc(Oc4ccccc4)cc2)O3)cc1` gave FGF22 binding inactive.
`COc1ccc(CN(C)C[C@@H]2Oc3ccc(NS(=O)(=O)c4cn(C)cn4)cc3CC(=O)N([C@@H](C)CO)C[C@@H]2C)cc1` gave FGF22 binding inactive.

From PubChem BioAssay
